Screens deposited in PubChem BioAssay by several laboratories.
Sa ugtP lethal: kills S. aureus RN4220 lacking UgtP; S. aureus RN4220 ugtP deletion, OD600 growth, 16 h; some inactives read as strong as hits; growth inhibition, % (no concentration beside the values); 330,000 tested, 0.54% active; AID 1259309;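 active = z-score under -3 and OD600 up to 0.15 on both plates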;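 also: plate controls were untreated wells for no effect and antibiotic for full effect; wells of about 80 µL received 100 nL stock; the first replicate is given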
Mtb hypoxia rep: Mtb hypoxia fluorescent reporter inhibition | M. tuberculosis hypoxia-regulated fluorescent reporter, fluorescence | fluorescence inhibition, % (no concentration beside the values) | 300,000 tested, 0.1% active | AID 1159583;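 active = 35 to 45% if threefold the growth effect, above 45% if 1.5-fold the growth effect; inactive = the rest, general growth blockers included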;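 also: wells of about 50 µL received 100 nL stock; 0% = vehicle wells and 100% = reference inhibitor wells; whole bacteria with a GFP reporter of the hypoxia response; strong numbers were not always called active; many hits fall short of the cut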
BJeLR lethal: kills HRASV12-expressing BJeLR cells; BJeLR (HRASV12) viability, CellTiter-Glo ATP luminescence, 48 h; reference of the scale not given here; 300,000 tested, 0.17% active; AID 1554; inhibition, % (no concentration beside the values);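 active = replicate mean above 50%; inconclusive = above 50% but judged a plate artefact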;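 also: 50 nL library stock added to about 25 µL; numbers are from one replicate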
Sa RN4220 lethal: S. aureus RN4220 growth inhibition; OD600, 16 h; inhibition, % (no concentration beside the values); 330,000 tested, 0.33% active; AID 1259311;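 active = z-score of -3 or lower and OD600 up to 0.18 on both plates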;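 also: plate controls were untreated cells for no effect and reference antibiotic for full effect; stock transfer was 100 nL into about 80 µL; one replicate is shown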
PrP 5UTR inh: inhibition of PrP 5' UTR reporter expression; inhibition, % (no concentration beside the values); 340,000 tested, 0.35% active; cell-based PrP 5' UTR mRNA reporter, plate reader;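 active = every replicate at 50% or more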;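 also: 0 = median of the neutral control wells; tested in H4 reporter cells; numbers are from one replicate; inactives centre near -14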
Autofluor counter: flagged as autofluorescent in microsphere protease counterscreen | fluorescence intensity (no concentration beside the values) | 360,000 tested, 3.1% active | AID 624483 | compound autofluorescence counterscreen, microsphere flow cytometry; active compounds read high;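 active = at least 3 SD above the mean of all compounds, about 16000 in these data; inconclusive = too few beads counted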;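 also: 100 nL of 1 mM stock went into each well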
Mtb hypoxia rep growth: further read-out of Mtb hypoxia rep, marked with its call; growth inhibition, %; measured here: M. tuberculosis growth (absorbance);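 0% = vehicle and 100% = reference antibiotic; read after six days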
Starred values were filed as active, the others as inactive.

Cc1cc(C)c(C)c(OCC(O)CN2CCN(c3ccccn3)CC2)c1 (stereo not drawn) was read as Sa ugtP lethal 0.4, Mtb hypoxia rep -1.0, BJeLR lethal 1.6, Sa RN4220 lethal 0.2, PrP 5UTR inh -8.3, Autofluor counter 6232 and Mtb hypoxia rep growth 2.4.
`COc1cc(NC(=O)CN2CCCCCC2)cc(OC)c1` gave Sa ugtP lethal 3.9, Mtb hypoxia rep 4.9, BJeLR lethal -12.9, Sa RN4220 lethal 5.6, PrP 5UTR inh 11.4, Autofluor counter 3247 and Mtb hypoxia rep growth 0.6.
For O=C(CCc1nnc2ccc(NCc3ccco3)nn12)Nc1ccccn1 the results were Sa ugtP lethal 1.3, Mtb hypoxia rep -16.1, BJeLR lethal 5.0, Sa RN4220 lethal 1.6, PrP 5UTR inh -18.4, Autofluor counter 5916 and Mtb hypoxia rep growth -27.9.
Cc1ccnn1C(C)C(=O)O (stereo not drawn) was read as Sa ugtP lethal 7.4, Mtb hypoxia rep 7.6, BJeLR lethal 8.9, Sa RN4220 lethal 1.3, PrP 5UTR inh -27.9, Autofluor counter 4153 and Mtb hypoxia rep growth 0.0.
COc1ccc(OCC(=O)Nc2cccc3cccnc23)cc1 was read as Sa ugtP lethal -17.7, Mtb hypoxia rep 17.0, BJeLR lethal 7.9, Sa RN4220 lethal 15.3, PrP 5UTR inh -33.4, Autofluor counter 9237 and Mtb hypoxia rep growth 8.8.
For COc1ccccc1C(=O)NC(=O)COC(=O)C1(C)CC1(Cl)Cl (stereo not drawn) the results were Sa ugtP lethal 3.1, Mtb hypoxia rep -3.4, BJeLR lethal 8.0, Sa RN4220 lethal 2.1, PrP 5UTR inh -22.4, Autofluor counter 4647 and Mtb hypoxia rep growth -9.8.
`O=C(/C=C/c1cccc([N+](=O)[O-])c1)Nc1ccc(NC(=O)c2cccs2)cc1` gave Sa ugtP lethal 4.7, Mtb hypoxia rep -0.4, BJeLR lethal 0.8, Sa RN4220 lethal 10.6, PrP 5UTR inh -15.6, Autofluor counter 2853 and Mtb hypoxia rep growth -2.1.
`O=C(C1CCN(S(=O)(=O)c2c(Cl)cccc2Cl)CC1)N1CCCC1` gave Sa ugtP lethal -1.3, Mtb hypoxia rep -4.8, Sa RN4220 lethal 1.7, PrP 5UTR inh -6.2, Autofluor counter 3697 and Mtb hypoxia rep growth -0.8.
For CN(c1ccccc1)S(=O)(=O)c1ccc(C(=O)OCC(=O)NCc2cccs2)cc1 the results were Sa ugtP lethal 8.5, Mtb hypoxia rep 2.5, BJeLR lethal 12.9, Sa RN4220 lethal 4.3, PrP 5UTR inh 10.4, Autofluor counter 3676 and Mtb hypoxia rep growth -3.1.
`CCOC(=O)NCc1ccccc1` gave BJeLR lethal 6.3, PrP 5UTR inh -11.1 and Autofluor counter 3869.
`CC(C)CNC(=O)[C@H](Cc1ccccc1)NC(=O)c1cccs1` gave Sa ugtP lethal 3.0, Mtb hypoxia rep 13.7, BJeLR lethal 0.6, Sa RN4220 lethal 1.5, PrP 5UTR inh -29.8, Autofluor counter 3734 and Mtb hypoxia rep growth 12.6.
Screening Cc1nn(CCC(=O)NNC(=S)Nc2ccccc2)c(C)c1Br returned Sa ugtP lethal -2.2, Mtb hypoxia rep 1.7, BJeLR lethal 0.4, Sa RN4220 lethal 5.3, PrP 5UTR inh -4.4, Autofluor counter 2571 and Mtb hypoxia rep growth 6.5.
`CC(C)=NOc1nc(N(C)C)nc(N2CCOCC2)n1` gave Sa ugtP lethal 7.8, Mtb hypoxia rep -1.2, BJeLR lethal 7.7, Sa RN4220 lethal 4.4 and Mtb hypoxia rep growth -1.7.
For O=C(c1cc2ccccc2oc1=O)N(Cc1ccccc1)C1CCS(=O)(=O)C1 (stereo not drawn) the results were Sa ugtP lethal 9.0, BJeLR lethal 0.4, Sa RN4220 lethal -0.3, PrP 5UTR inh -27.7 and Autofluor counter 3746.
For Cc1ccc(C)c(S(=O)(=O)NCCC(=O)N2CCCC(C(N)=O)C2)c1 (stereo not drawn) the results were Sa ugtP lethal -3.6, Mtb hypoxia rep -0.7, Sa RN4220 lethal -1.5, PrP 5UTR inh -25.5, Autofluor counter 3423 and Mtb hypoxia rep growth 4.8.
`Cc1ccc(Nc2nc(Nc3ccc(C)cc3)nc(SC3=NCCS3)n2)cc1` gave Sa ugtP lethal -0.9, Mtb hypoxia rep -1.2, BJeLR lethal -6.3, Sa RN4220 lethal -12.1, PrP 5UTR inh -21.1, Autofluor counter 10945 and Mtb hypoxia rep growth 4.6.
Screening CC(=NNC(=O)CN(c1ccccc1Br)S(C)(=O)=O)c1ccc2c(c1)OCCO2 returned Sa ugtP lethal 7.6, Mtb hypoxia rep 4.9, Sa RN4220 lethal 3.1 and Mtb hypoxia rep growth 3.6.
Screening COc1ccc(OC)c(-c2csc(NC(=O)Cc3ccccc3)n2)c1 returned Sa ugtP lethal 12.8, Mtb hypoxia rep -2.2, BJeLR lethal -5.3, Sa RN4220 lethal -1.4, PrP 5UTR inh 1.8, Autofluor counter 3685 and Mtb hypoxia rep growth 11.4.
`O=C(CSCc1ccco1)N1CCc2ccccc21` gave Sa ugtP lethal 10.1, Mtb hypoxia rep 3.7, BJeLR lethal 3.3, Sa RN4220 lethal 7.8, PrP 5UTR inh -86.3, Autofluor counter 5225 and Mtb hypoxia rep growth 10.1.
`CCN1C(=NCCc2ccccn2)N[C@@H](c2cccc(F)c2)C(C(=O)OC)=C1C` gave BJeLR lethal -1.7, PrP 5UTR inh -4.6 and Autofluor counter 3697.
O=c1[nH]c(CN2CCN(c3ccccc3O)CC2)nc2ccccc12 was read as Sa ugtP lethal -6.6, Mtb hypoxia rep -3.3, BJeLR lethal -9.7, Sa RN4220 lethal -8.2, PrP 5UTR inh -4.0, Autofluor counter 2772 and Mtb hypoxia rep growth 7.1.
`C=CCOc1ccccc1CN1CCC(Cc2ccccc2)CC1` gave Sa ugtP lethal 8.9, Mtb hypoxia rep 7.7, BJeLR lethal 10.8, Sa RN4220 lethal 1.8, PrP 5UTR inh -9.8, Autofluor counter 4229 and Mtb hypoxia rep growth 7.0.
`O=C(CSc1nnnn1-c1ccc(C(=O)O)cc1)NC1CC1` gave Sa ugtP lethal 2.8, Mtb hypoxia rep 13.5, BJeLR lethal -0.6, Sa RN4220 lethal -0.2, PrP 5UTR inh -5.5, Autofluor counter inconclusive and Mtb hypoxia rep growth 4.9.
Screening CC1(C)Cc2nc(Cl)c(C(N)=O)cc2CO1 returned Sa ugtP lethal 9.5, Mtb hypoxia rep -2.0, BJeLR lethal -1.0, Sa RN4220 lethal 4.2, PrP 5UTR inh -19.9, Autofluor counter 3789 and Mtb hypoxia rep growth -1.7.
`CC1CCN(C(=O)Cn2c(=O)n(Cc3ccco3)c(=O)c3sccc32)CC1` gave Sa ugtP lethal 9.5, Mtb hypoxia rep -0.1, BJeLR lethal -0.4, Sa RN4220 lethal 0.9, PrP 5UTR inh -16.6, Autofluor counter 3869 and Mtb hypoxia rep growth -11.8.
`Cc1ccc(C)c(N(C)S(=O)(=O)c2cccc3nsnc23)c1` gave Sa ugtP lethal -5.0, Mtb hypoxia rep -0.5, BJeLR lethal -8.4, Sa RN4220 lethal 3.2, PrP 5UTR inh -24.7, Autofluor counter 9433 and Mtb hypoxia rep growth 1.9.
Screening CCOc1ccc(S(=O)(=O)N2Cc3ccccc3CC2C(=O)O)cc1 (stereo not drawn) returned Sa ugtP lethal -8.5, Mtb hypoxia rep -1.3, BJeLR lethal 9.7, Sa RN4220 lethal -1.4, PrP 5UTR inh 0.2, Autofluor counter 4492 and Mtb hypoxia rep growth 16.8.
Cc1ccc(S(=O)(=O)/N=C(/c2ccc(F)cc2)N2CCOCC2)cc1 was read as BJeLR lethal 2.3, PrP 5UTR inh -6.9 and Autofluor counter 5049.
For O=C(Nc1cccc(Cl)c1)N(CCCN1CCOCC1)Cc1ccccc1F the results were Sa ugtP lethal -14.3, Mtb hypoxia rep 3.1, BJeLR lethal -23.7, Sa RN4220 lethal 1.8, PrP 5UTR inh -34.2, Autofluor counter 9853 and Mtb hypoxia rep growth 6.4.
`CCN(CC)C(=O)Cn1cc(C(=O)C2CC2)c2ccccc21` gave Sa ugtP lethal 6.5, Mtb hypoxia rep 5.5, BJeLR lethal -3.4, Sa RN4220 lethal 3.4, PrP 5UTR inh -15.2, Autofluor counter 4076 and Mtb hypoxia rep growth 5.9.
For O=C(NCc1ccc(F)cc1)c1ccc(Br)o1 the results were Sa ugtP lethal 2.4, BJeLR lethal 4.2, Sa RN4220 lethal 2.5, PrP 5UTR inh -19.1 and Autofluor counter 3422.
CN(CC(=O)NCc1ccco1)S(=O)(=O)c1cccc2cccnc12 was read as Sa ugtP lethal 5.6, BJeLR lethal -7.7, Sa RN4220 lethal 1.7, PrP 5UTR inh 1.4 and Autofluor counter 5628.
Screening Cc1ccc(CN2CC(C(=O)N3CCN(S(=O)(=O)c4cccc(F)c4)CC3)CC2=O)cc1 (stereo not drawn) returned Sa ugtP lethal 9.5, Mtb hypoxia rep 0.8, BJeLR lethal -16.4, Sa RN4220 lethal 5.3, PrP 5UTR inh -10.6, Autofluor counter inconclusive and Mtb hypoxia rep growth -3.9.
CN(C(=O)c1ccc(NC(=O)Cc2cccc(NC(=O)C3CCCN(C(=O)C4CCCCC4)C3)c2)cc1)C1CCCC1 (stereo not drawn) was read as Sa ugtP lethal 7.5, Mtb hypoxia rep 10.9, Sa RN4220 lethal 4.8, PrP 5UTR inh -15.4, Autofluor counter 2937 and Mtb hypoxia rep growth 17.0.
Cc1cc(C)nc(SCC(=O)NCC2COc3ccccc3O2)n1 (stereo not drawn) was read as Sa ugtP lethal 7.8, Mtb hypoxia rep 4.5, Sa RN4220 lethal 3.7, PrP 5UTR inh -30.1, Autofluor counter 2920 and Mtb hypoxia rep growth -4.1.
`CC1=C(C)CC(C(=O)Nc2nccs2)C(C(=O)O)C1` (stereo not drawn) gave Sa ugtP lethal 6.9, BJeLR lethal 16.0, Sa RN4220 lethal 5.4, PrP 5UTR inh -14.5 and Autofluor counter 3362.
For COc1cccc2c1C(=O)C=C(C)C2=O the results were Sa ugtP lethal 23.5, Mtb hypoxia rep -0.5, BJeLR lethal 6.6, Sa RN4220 lethal 16.6, PrP 5UTR inh -28.0, Autofluor counter 9310 and Mtb hypoxia rep growth 5.2.
`Nc1c2c(nn1-c1ccc(C(=O)O)cc1)CNC2` gave Sa ugtP lethal 10.2, Mtb hypoxia rep -0.8, BJeLR lethal -1.5, Sa RN4220 lethal 3.9, PrP 5UTR inh -8.2, Autofluor counter 3652 and Mtb hypoxia rep growth 3.2.
For COc1ccc(CNC(=O)COC(=O)c2ccc(F)c(S(=O)(=O)N3CCCCC3)c2)cc1OC the results were Sa ugtP lethal 6.7, Mtb hypoxia rep 1.4, BJeLR lethal 3.0, Sa RN4220 lethal 2.5, PrP 5UTR inh -25.8, Autofluor counter 4632 and Mtb hypoxia rep growth 4.3.
For Cc1noc(C)c1COC(=O)c1cnc(Cl)c(Cl)c1 the results were Sa ugtP lethal 7.4, Mtb hypoxia rep 6.4, BJeLR lethal 28.4, Sa RN4220 lethal 3.8, PrP 5UTR inh -98.9, Autofluor counter 3291 and Mtb hypoxia rep growth -1.5.
For CCC(C)NC(=O)CSc1nnc(-c2ccc(C(C)(C)C)cc2)n1C (stereo not drawn) the results were Sa ugtP lethal 1.0, Mtb hypoxia rep -9.6, BJeLR lethal -7.9, Sa RN4220 lethal 2.7, PrP 5UTR inh -14.6, Autofluor counter 7653 and Mtb hypoxia rep growth -11.9.
`Cn1c(=O)oc2cc(S(=O)(=O)NCCC(=O)N3CCc4ccccc43)ccc21` gave Sa ugtP lethal -3.5, Mtb hypoxia rep -4.4, BJeLR lethal 8.9, Sa RN4220 lethal -3.6, PrP 5UTR inh -20.2, Autofluor counter 21642* and Mtb hypoxia rep growth -8.7.
`O=C(Nc1ccc(C(F)(F)F)cc1)c1cnc(N2CCN(c3ccccn3)CC2)c2ccccc12` gave Sa ugtP lethal 11.6, Mtb hypoxia rep -11.3, BJeLR lethal 4.2, Sa RN4220 lethal 34.5, PrP 5UTR inh -19.6, Autofluor counter 4302 and Mtb hypoxia rep growth -67.6.
